Sa ugtP lethal: compounds lethal to S. aureus RN4220 ugtP deletion mutant. OD600 growth, 16 h; some inactives read as strong as hits. growth inhibition, % (concentration not given with the values). 330,000 compounds, 0.54% hits. AID 1259309;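 active means z-score under -3 and OD600 up to 0.15 on both plates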;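 further: plate controls were untreated wells for no effect and antibiotic for full effect; wells of about 80 µL received 100 nL stock; the first replicate is given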
PrP 5UTR inh: suppresses PrP 5' UTR mRNA reporter expression; cell-based PrP 5' UTR mRNA reporter, plate reader; inhibition, % (no concentration beside the values); 340,000 compounds, 0.35% hits; AID 488862;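 active means every replicate at 50% or more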;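 further: 0 = median of the neutral control wells; tested in H4 reporter cells; numbers are from one replicate; inactives centre near -14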
Mtb hypoxia inh: inhibitors of hypoxia-regulated fluorescent reporter in Mycobacterium tuberculosis | M. tuberculosis hypoxia-regulated fluorescent reporter, fluorescence | fluorescence inhibition, % (concentration not given with the values) | 300,000 compounds, 0.1% hits | AID 1159583;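 active means 35 to 45% if threefold the growth effect, above 45% if 1.5-fold the growth effect; inactive means the rest, general growth blockers included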;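 further: wells of about 50 µL received 100 nL stock; 0% = vehicle wells and 100% = reference inhibitor wells; whole bacteria with a GFP reporter of the hypoxia response; strong numbers were not always called active; many hits fall short of the cut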
Autofluor counter: compound fluorescence in toxin protease inhibitor counterscreen; fluorescence intensity (test concentration not listed); AID 624483; 360,000 compounds, 3.1% hits; compound autofluorescence counterscreen, microsphere flow cytometry; active compounds read high;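 active means at least 3 SD above the mean of all compounds, about 16000 in these data; inconclusive means too few beads counted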;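 further: 100 nL of 1 mM stock went into each well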
Sa RN4220 lethal: kills Staphylococcus aureus RN4220. 330,000 compounds, 0.33% hits. S. aureus RN4220 growth, OD600, 16 h. inhibition, % (test concentration not listed);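 active means z-score of -3 or lower and OD600 up to 0.18 on both plates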;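 further: plate controls were untreated cells for no effect and reference antibiotic for full effect; stock transfer was 100 nL into about 80 µL; one replicate is shown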
BJeLR viability: kills HRASV12-expressing BJeLR cells. 300,000 compounds, 0.17% hits. BJeLR (HRASV12) viability, CellTiter-Glo ATP luminescence, 48 h; reference of the scale not given here. inhibition, % (concentration not given with the values). AID 1554;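 active means replicate mean above 50%; inconclusive means above 50% but judged a plate artefact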;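 further: 50 nL library stock added to about 25 µL; numbers are from one replicate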
Mtb hypoxia inh growth: further read-out of Mtb hypoxia inh, marked with its call; growth inhibition, %; measured here: M. tuberculosis growth (absorbance);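 0% = vehicle and 100% = reference antibiotic; read after six days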
An asterisk follows results filed as active; ? = inconclusive; nt = no result given.

SMILES	Sa ugtP lethal	PrP 5UTR inh	Mtb hypoxia inh	Mtb hypoxia inh growth	Autofluor counter	Sa RN4220 lethal	BJeLR viability
Cc1ccc(-n2ncc3c(=O)n(CC#N)cnc32)cc1C	-7	1	16	-4	2703	-12	4
COC(=O)c1ccccc1NC(=O)Cn1c(=O)oc2ccc(Cl)cc21	-4	-11	9	5	4053	2.3	2
CCOC(=O)c1c(-n2cccc2)sc2c1CCCC2=O	6	-12	12	7	2652	6.3	-11
O=C(Nc1ccc(O)c(C(=O)O)c1)c1ccc2c(c1)C(=O)N(CC1CCCO1)C2=O (stereo not drawn)	1	-31	5	3	10088	5.8	9
Cn1cnnc1SCC(=O)NNC(=O)COc1ccc(Cl)cc1	5	-14	10	13	4668	1.3	12
Cc1sc(NC(=O)CSc2nnc(COc3ccc(Cl)cc3)n2C)c(C#N)c1C	-12	-2	-9	-6	4398	4.7	-13
Cc1ccc(CNC(=O)Cn2nnc(C(=O)Nc3cc(C)ccc3C)c2N)cc1	-1	-10	-2	7	5696	-7.5	4
CCOC(=O)c1cccc(-n2c(-c3ccc(OC)cc3)nc3nc4ccccc4nc32)c1	2	nt	12	3	nt	2.0	-1
Cc1cccc(NC(=O)c2cccc(C(=O)Nc3cccc(C)c3C)n2)c1C	11	-29	-3	1	3937	2.2	-4
CCOC(=O)c1nnn(-c2nonc2N)c1CN1CCCCCC1	6	-23	-3	-4	16135*	4.7	2
Cc1cc(C)nc(Nc2nc(C)c3cc4c(cc3n2)OCO4)n1	2	-10	4	3	7011	3.6	2
c1ccc(-n2nc3c(ccc4cnnc43)[nH]2)cc1	-8	-77	nt	nt	3919	-1.3	2
CCN(CCCNC(=O)Cn1cc2c(n1)CCCC2)c1cccc(C)c1	5	14	nt	nt	4563	-2.6	5
CS(=O)(=O)N1CCC(C(=O)Nc2ccc(F)cc2)CC1	13	-32	-6	2	3721	1.4	1
CSCCC(N=Cc1c(O)n(-c2ccc(F)cc2)c(=O)[nH]c1=O)C(=O)OC(C)(C)C (stereo not drawn)	4	-13	6	4	4352	1.4	-1
O=C(O)C1=C(C(=O)N2CCN(C(=O)c3ccco3)CC2)CCCC1	-1	-6	5	2	11186	1.7	6
FC(F)(F)c1ccccc1N1CC1c1ccncc1 (stereo not drawn)	-9	1	-8	-8	4162	-1.6	0
Cc1cc(OCCOCCN(C)CCO)cc(C)c1Cl	-11	-6	9	9	3522	-0.5	-11
O=c1[nH]c(C2CCN(S(=O)(=O)c3cccc(Cl)c3)CC2)nc2c1nnn2Cc1ccccc1	-8	-24	-11	5	3650	-4.2	-20
COc1ccc(NS(=O)(=O)c2cn(C)cn2)c(OC)c1	nt	-5	nt	nt	4142	nt	-2
COc1ccccc1NC(=O)Oc1ccc(NC(=O)c2ccco2)cc1	-1	-13	9	5	8908	6.8	2
CCC(C)[C@H](NS(=O)(=O)c1ccc(C)cc1)C(=O)N1CCC(C(=O)N[C@@H](Cc2ccccc2)C(=O)O)CC1 (stereo partly drawn)	2	-24	-6	3	4434	-0.2	-1
O=c1c2ccccc2n2c(-c3cccc(F)c3)nnc2n1Cc1ccccc1	0	2	-6	6	1882	-3.0	0
COc1ccc(NC(=O)c2ccco2)cc1NC(=O)c1cc2ccccc2o1	0	-28	4	1	9918	2.2	2
CCOc1ccccc1C1NC(=O)NC(C)=C1C(=O)OC1CCCC1C (stereo not drawn)	-7	1	8	2	3346	7.8	-5
CC(=O)c1ccc(OCc2cc(C(=O)NC(C)CCn3cccn3)no2)cc1 (stereo not drawn)	0	-46	-1	-16	5625	0.3	-4
CCn1c(SCc2ccccc2)nnc1C1CCN(S(=O)(=O)c2ccc(OC)cc2)CC1	-1	-11	3	9	3835	2.3	-6
COc1ccc(N(CC(=O)N2CCN(Cc3ccc4c(c3)OCO4)CC2)S(C)(=O)=O)cc1OC	-7	-18	4	9	2804	-10.0	4
CC(C)Oc1ccc(C(CC(=O)N(C)CCC#N)c2ccc(F)cc2)cc1 (stereo not drawn)	7	-23	2	-5	2130	-1.3	1
O=C(NCCCNC(=O)c1ccccn1)c1cccc(F)c1	3	-4	6	-2	3356	-3.6	6
CCn1nnnc1SCC(=O)NCc1cccs1	7	-27	nt	nt	4051	0.7	1
CCS(=O)(=O)c1ncc(Cl)c(C(=O)Nc2ccc(S(=O)(=O)N3CCC(C)CC3)cc2)n1	nt	-6	nt	nt	6532	nt	-2
CCOC(=O)c1ccc(NC(=O)N2CCc3ccccc32)cc1	0	-86	5	1	10582	-1.0	5
CCCn1c(N)c(N(CCOC)C(=O)CSCC(=O)Nc2ccc(OC)cc2)c(=O)[nH]c1=O	5	-19	-5	-6	?	4.8	7
CCCn1c(N)c(C(=O)CSc2ncnc3sccc23)c(=O)n(C)c1=O	-3	-18	-11	1	6233	4.3	nt
O=C(Nc1ccc(C(=O)O)cc1)/C(=C\c1ccc([N+](=O)[O-])cc1)NC(=O)c1ccc(Br)cc1	6	-2	4	10	2705	-1.5	1

In the list so far, 4 contain a COOH group:
SMILES	Sa ugtP lethal	PrP 5UTR inh	Mtb hypoxia inh	Mtb hypoxia inh growth	Autofluor counter	Sa RN4220 lethal	BJeLR viability
O=C(Nc1ccc(O)c(C(=O)O)c1)c1ccc2c(c1)C(=O)N(CC1CCCO1)C2=O (stereo not drawn)	1	-31	5	3	10088	5.8	9
O=C(O)C1=C(C(=O)N2CCN(C(=O)c3ccco3)CC2)CCCC1	-1	-6	5	2	11186	1.7	6
CCC(C)[C@H](NS(=O)(=O)c1ccc(C)cc1)C(=O)N1CCC(C(=O)N[C@@H](Cc2ccccc2)C(=O)O)CC1 (stereo partly drawn)	2	-24	-6	3	4434	-0.2	-1
O=C(Nc1ccc(C(=O)O)cc1)/C(=C\c1ccc([N+](=O)[O-])cc1)NC(=O)c1ccc(Br)cc1	6	-2	4	10	2705	-1.5	1

Next section.
SMILES	Sa ugtP lethal	PrP 5UTR inh	Mtb hypoxia inh	Mtb hypoxia inh growth	Autofluor counter	Sa RN4220 lethal	BJeLR viability
CCOC(=O)c1cnc2nc(C)[nH]n2c1=O	-2	1	nt	nt	2131	0.8	3
O=C1C(=Cc2ccco2)C(=O)c2ccccc21	1	-2	7	2	2117	5.7	-7
O=C(NN1C(=O)C2C3C=CC(C4CC34)C2C1=O)c1cccc(Cl)c1 (stereo not drawn)	-2	-29	0	13	11106	1.9	-9
COc1cc(C=Nn2cnnc2)ccc1OCC(=O)Nc1ccc(C)cc1	3	nt	19	13	nt	4.5	nt
CC(C)CCNc1nc(N)c([N+](=O)[O-])c(NCCO)n1	-3	-7	-4	8	3469	-0.8	6
O=C(Nn1c(C2CCCCC2)nc2ccccc2c1=O)c1ccc([N+](=O)[O-])cc1Cl	-11	-7	-8	-12	2367	6.3	19
COc1cc(/C=N/NC(=O)Cc2csc(N3CCOCC3)n2)cc(OC)c1O	nt	-26	nt	nt	4480	nt	11
O=C(CCOc1ccccc1)Nc1ccc([N+](=O)[O-])cc1	nt	-3	nt	nt	2422	nt	-10
CCNc1nc(NC(C)C)nc(SCCOC(=O)c2ccccc2)n1	-1	-1	7	-7	7861	9.8	-13
Cc1cc(C)c2c(N)c(C(=O)NC3CCCC3)sc2n1	6	-53	15	6	4637	1.9	-4
Cc1ccc(S(=O)(=O)Nc2c(C)nn(C)c2C)c(C)c1	-1	-23	-8	12	6099	1.9	6
CN(CC(=O)NCCc1ccccn1)S(=O)(=O)c1ccc(Cl)cc1	4	-3	16	5	4140	9.7	-2
O=C1NCC2=C1C(c1ccccc1)Nc1ccccc1N2 (stereo not drawn)	2	-6	-6	5	11953	1.3	4
O=C(Nc1ncc(Cc2ccccc2Cl)s1)c1ccc([N+](=O)[O-])cc1	-19	-25	7	1	2511	1.4	13
COCCn1nnnc1C(c1ccc(OC)cc1)N1CCC(C)CC1 (stereo not drawn)	2	-18	nt	nt	3607	5.2	-7
Cc1csc(SCC(=O)NCCc2ccc(Cl)cc2)n1	3	-19	8	6	2131	6.1	0
COc1ccc(N2CCN(C(=O)COC(=O)c3cnccn3)CC2)cc1	-1	-5	-7	13	?	0.2	1
COCC(C)NCC(=O)NC(C)CCc1ccccc1 (stereo not drawn)	-1	-7	10	13	2043	5.5	4
O=S(=O)(Nc1ccc(-c2cn3ccsc3n2)cc1)c1ccc2c(c1)OCCO2	6	-10	-4	4	3308	7.4	-3
CC(C)n1nnnc1SCC(=O)Nc1cccc(F)c1	2	-7	0	-7	4893	4.3	-13
COc1ccc(CN2CCNC(=O)C2CC(=O)NCCCn2nnc3ccccc32)cc1C (stereo not drawn)	5	1	-1	3	6289	2.5	0
CCOc1cc(C=NO)cc(Br)c1OCC	40	nt	12	13	nt	4.0	nt
COc1ccc2c(c1)CCc1c(C(=O)Nc3c(C)nn(Cc4ccccc4)c3C)noc1-2	18	-12	3	4	8834	2.2	-13
Cc1ccc(Cn2ncc3c(N4CCN(CCc5ccccc5)CC4)ncnc32)cc1	19	nt	14	7	4289	-1.3	4

Record cards (already shown).
O=C(NN1C(=O)C2C3C=CC(C4CC34)C2C1=O)c1cccc(Cl)c1 (stereo not drawn) in the list: Sa ugtP lethal = -2; PrP 5UTR inh = -29; Mtb hypoxia inh = 0; Mtb hypoxia inh growth = 13; Autofluor counter = 11106; Sa RN4220 lethal = 1.9; BJeLR viability = -9
Cc1ccc(-n2ncc3c(=O)n(CC#N)cnc32)cc1C in the list: Sa ugtP lethal = -7; PrP 5UTR inh = 1; Mtb hypoxia inh = 16; Mtb hypoxia inh growth = -4; Autofluor counter = 2703; Sa RN4220 lethal = -12; BJeLR viability = 4

Continued:
SMILES	Sa ugtP lethal	PrP 5UTR inh	Mtb hypoxia inh	Mtb hypoxia inh growth	Autofluor counter	Sa RN4220 lethal	BJeLR viability
CC(C)CC(=O)NC(Nc1ccc([N+](=O)[O-])cc1)C(Cl)(Cl)Cl (stereo not drawn)	-11	-13	2	10	2904	6.4	0
COc1ccc(NC(=O)COc2coc(CN3c4ccccc4CC3C)cc2=O)cc1 (stereo not drawn)	0	-10	5	1	nt	0.6	-5
Cc1ccc(S(=O)(=O)N2CCCCC2)cc1NC(=O)CN1CC=C(c2ccccc2)CC1	-1	-14	-2	12	13456	-2.5	-5
COC(=O)c1ccc2c(=O)n(Cc3ccc(C(=O)NCCCN4CCC(C)CC4)cc3)c(=S)[nH]c2c1	-65	1	6	12	3983	23	-5
O=C(CCCN1CCOC(c2ccccc2)C1)c1ccc(F)cc1 (stereo not drawn)	8	-24	20	5	4067	-1.0	-3

Screening results (PubChem)
